Source: PubChem BioAssay (National Center for Advancing Translational Sciences (NCATS))
Sfp inh: blocks B. subtilis Sfp PPTase activity | Q9F4F7 | Biochemical Sfp PPTase activity, qHTS | 310,000 compounds, 3.5% hits | Potency, µM, for inactives: max response, negative = inhibition, usual class: inhibitors; active = well fitted inhibition curve with a large enough effect; inconclusive = small, poorly fitted or top-dose-only effect, or another doubt; inactive = no such curve, though single readings can be large or run the other way;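 note: the enzyme is Sfp with the accession as filed and its product quenches rhodamine fluorescence; potency is the fitted concentration of half-maximal effect; 0% = enzyme reaction without inhibitor and -100% = no enzyme wells; top concentration of the series not given in the record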
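Fluorescence-quenching assay: 15 nM Sfp-PPTase preincubated 15 min at room temperature with compound, then 5 uM rhodamine-CoA and 12.5 uM BHQ-2-labelled YbbR peptide added. Fluorescence (ex 525/em 598 nm) read at start and after 30 min; difference gives rate.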
TRPV1 potentiator: potentiators of human vanilloid receptor 1 (TRPV1) | Q8NER1 | TRPV1-expressing cells, Fluo-8 calcium influx, capsaicin EC20 potentiation; host cell line not named in the record; control for the full effect not named in the record | potentiation, % at 8.33 µM | 320,000 compounds, 0.02% hits; active means potentiation above 80%; inconclusive means 30% to 80%; inactive means below 30%; note: 0% is about no effect
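Cells expressing TRPV1 were dye-loaded with Fluo-8 and read kinetically: 10 s baseline, 3 min after compound (agonist portion), then 2 min after EC20 capsaicin (allosteric enhancer portion). Calcium-bound dye fluorescence at 480/520 nm.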
TRPML1 blocker: inhibitors of human TRPML1 channel; activity change, negative = inhibition, % (concentration not given with the values); TRPML1-inducible cells, Ca2+ dye fluorescence, FDSS; active compounds read low; inhibition of EC80 agonist-evoked calcium signal; AID 624415; 390,000 compounds, 0.02% hits; Q9GZU1; in the data active means activity change below about -50%; inconclusive means about -30% to -50%; inactive means above about -30%;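 note: stimulus is agonist 54-4 at its EC80 concentration; % is set by controls: 0 for no effect and ±100 for the full control effect; the text of the record puts the active cut at -80%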
Target sequence (Q9GZU1 whole entry, looked up): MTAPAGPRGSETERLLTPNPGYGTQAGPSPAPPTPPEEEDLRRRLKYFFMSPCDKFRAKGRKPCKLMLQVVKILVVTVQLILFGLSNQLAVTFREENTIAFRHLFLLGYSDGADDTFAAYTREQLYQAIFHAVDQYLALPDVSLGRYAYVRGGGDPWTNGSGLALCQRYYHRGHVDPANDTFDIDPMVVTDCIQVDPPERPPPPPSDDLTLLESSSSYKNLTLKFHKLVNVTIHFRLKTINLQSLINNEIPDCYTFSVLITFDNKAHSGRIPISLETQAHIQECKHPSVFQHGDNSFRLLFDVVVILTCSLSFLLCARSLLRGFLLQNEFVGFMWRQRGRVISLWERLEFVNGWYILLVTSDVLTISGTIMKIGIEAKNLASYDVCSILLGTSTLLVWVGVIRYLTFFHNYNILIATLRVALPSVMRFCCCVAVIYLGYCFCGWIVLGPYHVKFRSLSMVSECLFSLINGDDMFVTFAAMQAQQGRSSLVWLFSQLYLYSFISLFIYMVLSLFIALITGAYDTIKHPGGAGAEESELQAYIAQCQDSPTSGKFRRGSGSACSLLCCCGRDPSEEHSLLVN
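Calcium fluorescence in TRPML1-DL cells induced overnight with Tet: a 110 s read after compound pin addition, then a 110 s antagonist read after challenge with 54-4 at 4 uM final (EC80).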
ClpP mod: qHTS Assay for Activators of ClpP; Potency, µM (titrated, usually from 57.5 µM), for inactives: at the highest dose activity change, negative = active; AID 651965, 2013; ATP-dependent Clp protease proteolytic subunit (Bacillus subtilis (strain 168)), P80244; 340,000 compounds, 1.9% hits; purified B. subtilis ClpP, FRET peptide cleavage, 20 min; active = well fitted falling curve with a large enough effect; inconclusive = small, poorly fitted or top-dose-only effect; inactive = no such curve, though single readings can be large or run the other way; note: potency is the fitted concentration of half-maximal effect; the source files actives as falling curves though it sought activators and does not explain the sign; nearly all actives have a fitted effect of over 65% in size; many hits overshoot -100%
Target sequence (P80244 whole entry, looked up): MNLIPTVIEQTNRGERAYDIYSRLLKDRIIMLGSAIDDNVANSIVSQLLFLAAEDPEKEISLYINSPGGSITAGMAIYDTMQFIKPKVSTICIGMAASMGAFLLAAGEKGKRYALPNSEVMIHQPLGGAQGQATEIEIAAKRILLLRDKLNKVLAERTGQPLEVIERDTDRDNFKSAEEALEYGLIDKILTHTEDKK
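Buffer: 100 mM Tris/HCl pH8, 100 mM KCl, 0.05% low protease BSA, 2.5% glycerol, 0.01% Tween-20. ClpP 10 microg/mL final; 20 min RT; delta FRET normalized to ADEP and DMSO controls.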
Menin-MLL FL inh: inhibitors of human menin-MLL interaction, wild-type MLL peptide | AID 1766 | FP activity change, % at 61.4 µM | Fluorescence polarization, fluorescein-MLL peptide displacement from menin | 290,000 tested, under 10 active; inconclusive = falling polarisation curve, or a change in total fluorescence; inactive = total fluorescence flat and polarisation flat or rising; no compound was filed as active; the % refers to the polarisation; negative = inhibition;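 note: % of control where 0% means no effect; inhibitors lower the polarisation; unlabelled MLL peptide was the positive control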
Numbers without * were called inactive; ? = inconclusive; / = not tested or not shown; & = joins results of further samples; ! = a repeat was not active; [ ] = another dose, or the depositor's remark.

SMILES	Sfp inh	TRPV1 potentiator	TRPML1 blocker	ClpP mod	Menin-MLL FL inh
COc1cc2c(cc1OC)[C@@]13CCN4CC5=CCOC6CC(=O)N2C1[C@H]6[C@@H]5C[C@@H]43 (some centres undefined)	18%	/	/	/	-8.3
COP(=S)(OC)Oc1ccc(S(=O)(=O)N(C)C)cc1	35µM*	/	/	/	-1.7
NC(=NCc1ccc(Cl)cc1)SCCCc1cnc[nH]1	-2%&8%	/	/	/	-5.2
CSCC[C@H](NC(=O)[C@H](CC(C)C)NC(=O)[C@@H](Cc1cnc[nH]1)NC(=O)[C@H](Cc1ccccc1)NC(=O)[C@@H](Cc1ccccc1)NC(=O)[C@@H](N)Cc1ccc(O)cc1)C(N)=O	10%	/	/	/	-1.9
CC(=O)O[C@H]1CC[C@@]2(C)C(=CC[C@@H]3[C@H]2CC[C@]2(C)C(=O)CC[C@H]32)C1	27%	/	/	/	2.2[24.8 µM]
COCC(=O)N(c1c(C)cccc1C)C(C)C(=O)OC (centres undefined)	26%	/	/	/	4.1
COc1ccc(C(=O)c2c(C)n(CCN3CCOCC3)c3cc(I)ccc23)cc1	-10%	/	/	/	-2.5
CCC1/C=C/C=CCC(C)C(O)[C@@](C)(O)C(=O)C(C)C(O)C(C)C(=O)C(C)C(O)C(C)C=CC(=O)O[C@H]2C(C)C(CC1)O[C@]1(CCC(C)C(CC(C)O)O1)C2C (some centres undefined)	-4%	/	/	/	-4.1
COc1ccc2c(c1)CCC1[C@@H]2CCC2(C)[C@@H](NCCCCCCN3C(=O)C=CC3=O)CC[C@@H]12 (some centres undefined)	-26%	/	/	/	?
CCOC(=O)CN1C(=O)CC(C[C@@H](O)C2C[C@@H](C)C[C@H](C)C2=O)CC1=O (some centres undefined)	5%&16%	/	/	/	-0.2
C(=C/c1ccccc1)/CN1CCN(CCOC(c2ccccc2)c2ccccc2)CC1	?	/	/	/	22
c1ccc2c(c1)sc1ccccc12	-17%	/	/	/	1.7
COc1ccc2c(c1O)-c1c(OC)c(OC)cc3c1[C@@H](C2)N(C)CC3	-42%	/	/	/	-0.5
CCOc1ccc(S(=O)(=O)O)c2cccnc12	71µM*	/	/	/	-2.6
C[C@@H]1C(=O)O[C@@H]2C[C@]34[C@H]5C[C@@H](C(C)(C)C)[C@@]36[C@@H](OC(=O)[C@@H]6O)O[C@@]4(C(=O)O5)[C@@]12O	11%	/	/	/	-1.7[24.8 µM]
COC(=O)N1CCN(C(=O)Cc2ccc(Cl)c(Cl)c2)[C@H](CN2CCCC2)C1	25%	/	/	/	-4.1
C=C1CC[C@H](O)C/C1=C/C=C1\CCC[C@]2(C)[C@H]1CC[C@H]2[C@@H](C)CCCC(C)C	-6%	/	/	/	-0.1[24.8 µM]
CC1=C2[C@@H]3OC(=O)[C@@H](C)[C@@H]3CC[C@]2(C)C=CC1=O	16%	/	/	/	6.6[24.8 µM]
O=C(Nc1cccc(F)c1)N1CC2(CCNCC2)C1	?	/	/	/	0.2
CC(C)NC(=O)N1CC[C@@]2(CCCNC2)C1	-1%	/	/	/	0.8
CC(C)N1C(=O)c2ccccc2NS1(=O)=O	18%	/	/	/	-3.7
O=C1CCCCC1CN1CCCCC1 (centres undefined)	7%	/	/	/	-0.6
CC(C)(Cc1c[nH]c2ccc(Cl)cc12)NCCOc1ccccc1OCC1CC1	35µM*!	/	/	/	-15
CC12CCC3C4CCC(=O)C(O)=C4CCC3C1CCC2OC(=O)CCC1CCCC1 (centres undefined)	17%	/	/	/	-3.5
O=c1cccc2n1CC1CC2CN(CCO)C1 (centres undefined)	17%	/	/	/	-2.6
Clc1ccc(C2(Cn3cncn3)OCCO2)c(Cl)c1	3%	/	/	/	-4.8
CCCCCCCCCCCCCCCCOC[C@H](COP(=O)([O-])OCC[N+](C)(C)C)OC(C)=O	9%&-18%	/	/	/	2.9
O=C1c2ccccc2C(=O)c2ccccc21	22%&2%	/	/	/	?
CC(=O)CC(c1ccccc1)c1c(O)c2cc(O)ccc2oc1=O (centres undefined)	?	/	/	/	-3.9
CN1Cc2c(ccc3c2OCO3)C2C(O)Cc3cc4c(cc3C21)OCO4 (centres undefined)	31%&19%[activator]	/	/	/	?
CC(C)[C@@]1(NC(=O)[C@@H]2C[C@H]3c4cccc5[nH]cc(c45)C[C@@H]3N(C)C2)O[C@@]2(O)[C@H]3CCCN3C(=O)[C@H](Cc3ccccc3)N2C1=O	8%&0%	/	/	/	?
CNc1ccc(C(=O)CC(O)CCC(C)C2OC(=O)CC(O)CC(=O)CC(O)CC(O)CC(O)CC(O)CC3(O)CC(O)C(C(=O)OC)C(CC(O[C@@H]4OC(C)C(O)C(N)C4O)/C=C/C=C/C=C/C=C/C=C/C=C/C=C/C2C)O3)cc1 (some centres undefined)	-14%	/	/	/	-1.1
COc1ccc(CC2NC[C@H](O)[C@H]2OC(C)=O)cc1 (some centres undefined)	10%	/	/	/	0.6
CCN1C[C@@]2(COC)C3[C@@H](OC)C4[C@@H]1[C@@]3(C1C[C@@]3(O)[C@H](OC(=O)c5ccccc5)C1[C@]4(OC(C)=O)[C@@H](O)[C@@H]3OC)[C@@H](OC)C[C@H]2O (some centres undefined)	4%	/	/	/	16
Cc1nc(N)sc1CCN	0%&0%	/	/	/	-13
CC(=O)O[C@H]1CC[C@H]2[C@@H]3CCC4=CC(=O)CCC4=C3C=C[C@]12C	-2%	/	/	/	-1.7
CCCC(=O)OC(C(Cl)(Cl)Cl)P(=O)(OC)OC (centres undefined)	10%	/	/	/	-2.4
CC(=O)O[C@H]1C[C@H]2CC[C@@H]3[C@@H](CC[C@]4(C)[C@H](OC(C)=O)[C@H]([N+]5(C)CCCCC5)C[C@@H]34)[C@]2(C)C[C@H]1[N+]1(C)CCCCC1	25%	/	/	/	0.4[24.8 µM]
NC(CP(=O)(O)O)C(=O)O (centres undefined)	?	/	/	/	1.3
N[C@H](Cc1o[nH]c(=O)c1Cl)C(=O)O	79µM*	/	/	/	?

Some of the entries above in a different format.
Values run as follows: Sfp inh | TRPV1 potentiator | TRPML1 blocker | ClpP mod | Menin-MLL FL inh
- CC(=O)CC(c1ccccc1)c1c(O)c2cc(O)ccc2oc1=O (centres undefined)
  ? | / | / | / | -3.9
- CN1Cc2c(ccc3c2OCO3)C2C(O)Cc3cc4c(cc3C21)OCO4 (centres undefined)
  31%&19%[activator] | / | / | / | ?
- CC(C)[C@@]1(NC(=O)[C@@H]2C[C@H]3c4cccc5[nH]cc(c45)C[C@@H]3N(C)C2)O[C@@]2(O)[C@H]3CCCN3C(=O)[C@H](Cc3ccccc3)N2C1=O
  8%&0% | / | / | / | ?

Continuation:
SMILES	Sfp inh	TRPV1 potentiator	TRPML1 blocker	ClpP mod	Menin-MLL FL inh
O=C1Nc2ccccc2C2(CCN(CCc3ccc(C(F)(F)F)cc3)CC2)O1	-13%&11%	/	/	/	5.0&-5.2
CC(C)(N)Cc1ccc(Cl)cc1	11%	/	/	/	-0.8
C#C[C@]1(O)CC[C@H]2[C@@H]3CCC4=CC(=O)CCC4(C)[C@H]3CCC21C (some centres undefined)	30%	/	/	/	0.0
C/C=C1/CN2CC[C@]34C(=C(C=O)[C@@H]1C[C@H]23)Nc1c(O)cccc14	-14%	/	/	/	0.2
CCCCCCCCOC(=O)c1ccccc1C(=O)OCCCCCCCC	-10%	/	/	/	-3.3
O=c1oc2ccccc2c(O)c1C(c1ccccc1O)c1c(O)c2ccccc2oc1=O	10%	/	/	/	-0.3
CNCC/C=C\c1cccnc1	9%	/	/	/	?
CCC1(c2ccccc2)C(=O)NC(=O)N(C)C1=O (centres undefined)	9%	/	/	/	0.6
C=CCc1ccc2c(c1)OCO2	17%	/	/	/	0.9
Cc1ccc(C[N+](C)(C)C)o1	-1%&-8%&3%	/	/	/	?
O=C(CCl)c1ccc(Oc2ccc(C(=O)CCl)cc2)cc1	50µM*	/	/	/	2.8
CC(C)=CC1C(C(=O)OCN2C(=O)C3=C(CCCC3)C2=O)C1(C)C (centres undefined)	0%	/	/	/	0.7
C/C=C1/C[C@@H](C)[C@](O)(CO)C(=O)OCC2=CCN3CC[C@@H](OC1=O)C23 (some centres undefined)	1%&9%	/	/	/	-0.5&-16
CC(C)C[C@H](NC(=O)[C@@H](N)Cc1ccccc1)C(=O)N[C@@H](Cc1ccccc1)C(=O)N[C@@H](CCC(N)=O)C(=O)N1CCC[C@H]1C(=O)N[C@@H](CCC(N)=O)C(=O)N[C@@H](CCCN=C(N)N)C(=O)N[C@@H](Cc1ccccc1)C(N)=O	33%[activator]	/	/	/	-0.6
C/C=C(/C)C(=O)O[C@H]1C(C)=C2[C@H]([C@@H]1OC(=O)CCCCCCC)[C@@](C)(OC(C)=O)C[C@H](OC(=O)CCC)[C@@]1(O)[C@H]2OC(=O)[C@@]1(C)O	30%&19%	/	/	/	-0.5
CC[C@]1(O)CC[C@H]2[C@@H]3CCC4=CCCC[C@@H]4[C@H]3CC[C@@]21C	7%	/	/	/	0.6
CC(=O)OC1C2CCC3C1(CC(O)[C@@]1(O)[C@@H](CC(O)C1(C)C)[C@]3(C)O)C[C@@]2(C)O (some centres undefined)	6%	/	/	/	-1.1
CC1(C)N([O-])[N+](=O)C1(C)Br (centres undefined)	-68%	/	/	/	-0.4
ClC1=C(Cl)C(Cl)(C2(Cl)C(Cl)=C(Cl)C(Cl)=C2Cl)C(Cl)=C1Cl	?	/	/	/	?
Ic1cncc(OC[C@@H]2CCN2)c1	20%	/	/	/	1.0

Random excerpt: two entries already listed, in no set order.
SMILES	Sfp inh	TRPV1 potentiator	TRPML1 blocker	ClpP mod	Menin-MLL FL inh
CC(C)=CC1C(C(=O)OCN2C(=O)C3=C(CCCC3)C2=O)C1(C)C (centres undefined)	0%	/	/	/	0.7
O=c1oc2ccccc2c(O)c1C(c1ccccc1O)c1c(O)c2ccccc2oc1=O	10%	/	/	/	-0.3

The listing continues.
SMILES	Sfp inh	TRPV1 potentiator	TRPML1 blocker	ClpP mod	Menin-MLL FL inh
O=C(O)C(Cl)Cl	-3%&6%	/	/	/	3.3&-0.1
O=C(O)CNCP(=O)(O)O	-2%	/	/	/	-1.5
COc1cc2c3cc1Oc1c(OC)c(OC)cc4c1[C@@H](Cc1ccc(OC(=O)c5ccc([N+](=O)[O-])cc5)c(c1)Oc1ccc(cc1)C[C@@H]3N(C)CC2)N(C)CC4	?	/	/	/	0.5&1.2
COc1ccc(-n2nc(C(F)(F)F)cc2-c2ccc(Cl)cc2)cc1	-4%	/	/	/	1.6&-2.0
O=C(Nc1cccc(C(=O)Nc2cc(C(=O)Nc3ccc([S+](=O)([O-])[O-])c4cc([S+](=O)([O-])[O-])cc(SOOO)c34)ccc2F)c1)Nc1cccc(C(=O)Nc2cc(C(=O)Nc3ccc([S+](=O)([O-])[O-])c4cc([S+](=O)([O-])[O-])cc([S+](=O)([O-])[O-])c34)ccc2F)c1	?	/	/	/	2.1
CCCCCOc1c(OC)ccc2cc(C(=O)NCc3ccc4c(c3)OCO4)c(=O)[nH]c12	-7%	/	/	/	-2.9
O=C1Nc2cc(C(=O)N3CCC4(CC3)OCCO4)ccc2NC1CSCc1cccc(F)c1 (centres undefined)	50µM*	?	/	/	/
O=C(Oc1ccc([N+](=O)[O-])cc1)N1CCN(/[N+]([O-])=N/Oc2ccc([N+](=O)[O-])cc2[N+](=O)[O-])CC1	/	/	-26	/	/
COc1ccc(-n2nnnc2C(c2ccnc3ccccc23)N2CCC(n3c(=O)[nH]c4ccccc43)CC2)cc1 (centres undefined)	/	/	/	0.3%	/
O=C1NC(=O)C(=Cc2ccc(Cl)cc2)C(=O)N1	/	/	/	-2.3%	/

This is a subset; rates above refer to the full screens.
